# ALR H2O2 inh – inhibitors of human sulfhydryl oxidase ALR | 290,000 compounds, 3.8% hits | AID 485317 | purified ALR, DTT oxidation, H2O2 HRP-luminol luminescence | inhibition, % (test concentration not listed) | P55789;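 active = mean and each replicate at 75% or more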;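 also: stock transfer was 7.5 nL into about 7.5 µL; 0% = neutral wells and 100% = wells with inactivated enzyme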
# Target sequence (P55789 whole entry, looked up): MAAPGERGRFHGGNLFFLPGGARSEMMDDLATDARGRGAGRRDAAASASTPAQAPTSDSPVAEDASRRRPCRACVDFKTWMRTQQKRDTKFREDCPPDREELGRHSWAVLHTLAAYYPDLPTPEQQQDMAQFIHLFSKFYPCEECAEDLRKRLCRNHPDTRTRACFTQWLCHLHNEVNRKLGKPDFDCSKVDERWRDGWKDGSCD
# Ecoli growth – blocks Escherichia coli growth; OD600, 23 h; active compounds read low; OD600 absorbance (test concentration not listed); 330,000 compounds, 0.21% hits; AID 1053175;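 active = OD600 absorbance below the run mean of sample wells minus 3.6 SD, in any replicate, cut at about 0.56 in these data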;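 also: stock transfer was 300 nL into about 60 µL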
# UCH37 inh – human UCH37 deubiquitinating enzyme inhibition; Q9Y5K5; purified proteasome/UCH37, Ub-AMC cleavage fluorescence; inhibition, % (test concentration not listed); 330,000 compounds, 0.33% hits; AID 588478;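 active = mean of two replicates above 20%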;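 also: 0% = compound-free wells with enzyme and 100% = wells lacking proteasome; stock transfer was 100 nL into about 20 µL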
#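 Test system – human UCH37 enzyme supplied as purified proteasome complex · Incubation – 30 min preincubation with enzyme, 25 min cleavage at room temperature · Detection – AMC fluorescence from Ub-AMC cleavage, excitation 355 nm, emission 460 nm · Benchmarks – no-proteasome wells (full inhibition) and compound-free wells (no inhibition)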
# B2AR ag – human beta-2 adrenergic receptor agonism by FAP; P07550; Am2.2-beta2AR cells, FAP receptor internalization, flow cytometry; reference of the scale not given here; response, % (concentration not given with the values); 340,000 compounds, 0.43% hits;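 active = response above a set limit, near 3 SD of response in nonfluorescent compounds, cut at about 42% in these data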;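 also: stock transfer was 100 nL into about 11 µL; a reference agonist was the positive control; negative values mostly stem from fluorescent compounds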
# Target sequence (P07550 whole entry, looked up): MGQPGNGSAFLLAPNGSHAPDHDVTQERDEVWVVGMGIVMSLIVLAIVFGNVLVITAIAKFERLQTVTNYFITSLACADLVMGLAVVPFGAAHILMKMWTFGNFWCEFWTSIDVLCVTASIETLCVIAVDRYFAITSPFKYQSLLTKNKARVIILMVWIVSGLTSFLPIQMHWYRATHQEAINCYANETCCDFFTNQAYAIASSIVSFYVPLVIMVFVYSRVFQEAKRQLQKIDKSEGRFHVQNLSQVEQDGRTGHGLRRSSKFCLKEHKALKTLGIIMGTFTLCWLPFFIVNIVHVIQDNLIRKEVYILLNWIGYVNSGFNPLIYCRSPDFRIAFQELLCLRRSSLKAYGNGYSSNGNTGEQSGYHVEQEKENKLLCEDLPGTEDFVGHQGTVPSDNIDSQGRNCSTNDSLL
# HNF4A DNA FP – change in binding of human HNF4 alpha to DNA | activity change, % at 10 µM | 360,000 compounds, 0.3% hits | HNF4a-FITC DNA binding, fluorescence polarization, 1 h | AID 1224865; in the data active = activity change above about 30%, passing the limit was not always enough;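 also: controls were the assay level and a saturating level of protein; the project sought stronger binding though the title names inhibitors; some compounds called inactive have numbers as strong as hits; positive values seem to mean higher polarization but the record does not say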
# Ecoli rRNA inh – inhibitors of bacterial rRNA selective over humanized ribosomes; E. coli WT GFP vs humanized-ribosome RFP mutants, fluorescence, 24 h; active compounds read low; DMSO median 0, no signal -100; GFP signal change (wild-type ribosome), % (no concentration beside the values); 350,000 compounds, 1.6% hits;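 active = significant combined selectivity score with lowered wild-type GFP, culture density cut under 30%, mutant RFP and density less affected; inactive = any of these conditions unmet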; also: one replicate is shown; some compounds called inactive have numbers as strong as hits
# FGF22 binding – shifts melting point of recombinant human FGF22; calls only at 9.99 µM; 340,000 compounds, 1.5% hits; recombinant FGF22 thermal shift, SYPRO orange fluorescence; percent of sucrose octasulfate shift, DMSO zero; Q9HCT0;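 active = melting point raised past a set limit in the mean and every replicate; three in four hits are not shown here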
# Target sequence (Q9HCT0 whole entry, looked up): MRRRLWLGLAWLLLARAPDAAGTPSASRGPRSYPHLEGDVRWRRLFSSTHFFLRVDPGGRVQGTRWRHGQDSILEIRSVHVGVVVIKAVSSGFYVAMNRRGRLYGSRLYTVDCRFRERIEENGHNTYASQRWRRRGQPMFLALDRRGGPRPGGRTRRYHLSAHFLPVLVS
# Ecoli rRNA inh OD600 – second read-out of Ecoli rRNA inh, no call of its own (marks repeat the call); OD600 change, %; measured here: OD600 growth;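 optical density of the mix in the first replicate; 0 = DMSO median and -100 = no signal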
# Ecoli rRNA inh RFP – further read-out of Ecoli rRNA inh, marked with its call; RFP signal change, %; measured here: RFP humanized mutant strains;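 first replicate; 0 = DMSO median and -100 = no signal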
# * = called active by the depositor; i = inactive; nt = not tested or not shown. These rows are one share of the data (hit frequency here may not be typical).
SMILES,ALR H2O2 inh,Ecoli growth,UCH37 inh,B2AR ag,HNF4A DNA FP,Ecoli rRNA inh,Ecoli rRNA inh OD600,Ecoli rRNA inh RFP,FGF22 binding
COc1cccc(-c2cnc3c(NC(C)=O)cc(-c4ccncc4)cn23)c1,nt,nt,nt,nt,1.0,2,-3,-1.0,i
CC(=O)Oc1cccc(C(=O)Nc2ccc(NC(=O)c3cccs3)cc2)c1,nt,0.65,-4.0,19,-2.1,20,22,0.6,nt
CCc1nc(SCC(=O)c2ccccc2)c2c(=O)n(C)c(=O)n(C)c2n1,-9,0.71,6.3,-25,7.2,8,2,-2.1,i
O=C(Cn1cnc(Cl)c1Cl)c1ccccc1,13,0.68,3.2,1,0.1,7,2,0.4,i
N#CCCn1nc(-c2ccccc2)cc1Nc1ccccc1NC(=O)C(F)(F)F,-3,0.67,4.1,-22,0.3,-2,6,-6.5,i
O=C(c1ccoc1)N1CCN(c2cc(-c3cccnc3)nc3cc(-c4cccc(Cl)c4)nn23)CC1,nt,nt,nt,nt,-2.2,14,21,2.5,i
COC(=O)c1ccc(NC(=O)CSc2ccccc2)cc1,19,nt,nt,6,-0.3,nt,nt,nt,nt
Cc1ccc(C(=O)N2CCN(c3cccc(Cl)c3)CC2)cc1C,-7,0.66,-1.1,0,2.5,-43,-65,-5.1,i
CCSC1=N/C(=C\c2ccc(C)s2)C(=O)S1,0,0.63,1.8,0,-2.4,nt,nt,nt,nt
COCCn1c(N2CCN(c3ccccc3)CC2)nc2c1c(=O)n(C)c(=O)n2C,62,0.7,-0.7,-7,-9.8,9,5,0.4,nt
CC(=O)C[C@@H](O)CC(=O)[C@@H]1OC(=O)[C@@H](C)C/C=C\Cc2ccccc21,nt,0.71,3.6,-3,-1.2,-4,0,1.6,i
CC(=O)c1c(C)[nH]c(C(=O)CSc2nc3ccc(C)cc3[nH]2)c1C,97*,0.75,2.0,-4,0.0,nt,nt,nt,nt
Cc1onc(-c2c(F)cccc2Cl)c1C(=O)NNC(=O)C1CCN(Cc2cccc(F)c2)CC1,0,0.71,0.2,12,2.4,11,1,2.0,i
COc1cccc(CC(NC(C)=O)C(=O)NC2CCN(c3nnnn3-c3ccccc3)CC2)c1 (stereo not drawn),0,0.72,3.8,-6,-4.8,nt,nt,nt,nt
CCOC(=O)Cc1c(C)nc(Cc2ccc(OC(C)C)cc2)[nH]c1=O,nt,0.67,0.6,-23,2.8,2,8,-2.4,i
CCOc1ccc(NC(=O)COc2ccc(C(=O)NCCc3ccccc3)cc2)cc1,3,0.64,0.6,7,-2.3,6,11,4.1,i
C#CCOCCOCCOCCNc1nc(N2CCN(C(=O)[C@H](CCC(=O)O)n3cc(C(N)Cc4ccc(O)cc4)nn3)CC2)nc(N2CCN(C(=O)[C@H](CCC(=O)O)n3cc(C(N)[C@H](C)CC)nn3)CC2)n1 (stereo partly drawn),3,nt,6.0,-2,2.2,nt,nt,nt,nt
CCC1CCCCN1CCNS(=O)(=O)c1ccc2c(c1)oc(=O)n2C (stereo not drawn),-22,0.77,2.9,-2,-4.5,-1,-1,5.2,i
CC1(C)C(c2ccccc2)=[N+]([O-])CN1O,-3,0.72,6.2,0,-0.6,nt,nt,nt,nt
CSc1nc2ccc(S(=O)(=O)NC3CCCCC3)cc2s1,-3,0.75,-4.0,-15,-1.9,nt,nt,nt,nt
COc1ccc(O)c(C(=O)c2cnn(C(=O)c3cccc(S(=O)(=O)N4CCOCC4)c3)c2)c1,0,0.7,-5.1,5,7.1,7,10,-0.3,i
COc1ccc(C(NC(=O)c2ccc(F)cc2)c2ccccc2)cc1 (stereo not drawn),5,0.67,0.9,7,4.7,9,3,-0.2,i
Cc1cc(C)n(-c2nc(NCCN(C)C)c3c4c(sc3n2)COC(C)(C)C4)n1,-6,0.64,-3.3,11,-1.3,-32*,-24*,-0.2*,i
CC1OC(C(C)(C)C)Cc2[nH][nH]c(=O)c21 (stereo not drawn),nt,nt,nt,nt,-0.1,14,17,2.2,i
CCN1CCN(S(=O)(=O)c2ccc3ccccc3c2)CC1,nt,0.71,-0.4,1,4.5,-15,-14,1.7,i

# Two compounds from above, limited to B2AR ag, UCH37 inh and Ecoli rRNA inh:
Structure | B2AR ag | UCH37 inh | Ecoli rRNA inh
Cc1cc(C)n(-c2nc(NCCN(C)C)c3c4c(sc3n2)COC(C)(C)C4)n1 | 11 | -3.3 | -32*
CC1OC(C(C)(C)C)Cc2[nH][nH]c(=O)c21 (stereo not drawn) | nt | nt | 14

# Additional records.
SMILES,ALR H2O2 inh,Ecoli growth,UCH37 inh,B2AR ag,HNF4A DNA FP,Ecoli rRNA inh,Ecoli rRNA inh OD600,Ecoli rRNA inh RFP,FGF22 binding
CCCCCCn1c(N2CCN(c3ccccc3)CC2)nc2c1c(=O)n(C)c(=O)n2C,3,0.72,1.3,-8,0.5,nt,nt,nt,nt
COc1ccc(CC(=O)N2CCN(c3ccccc3)CC2)cc1,72,0.68,-0.5,0,-1.0,-7,-3,-1.0,i
OCCC1CN(Cc2ccc3ncccc3c2)CCN1Cc1ccccc1 (stereo not drawn),-4,0.72,1.5,-1,-2.4,12,13,3.8,i
CCc1cc2cc3c(cc2nc1SCC(=O)N1CCN(C(=O)c2ccco2)CC1)OCO3,-9,0.75,4.5,-2,1.7,nt,nt,nt,nt
Cc1cc(S(=O)(=O)N(Cc2ccc(F)cc2)CC2CCCO2)ccc1-n1cnnn1 (stereo not drawn),-5,0.71,4.8,-2,0.7,-21*,-16*,1.8*,i
CS(=O)(=O)NCCNc1cc(Cl)ccc1[N+](=O)[O-],-6,0.65,7.2,-9,-0.7,4,5,-1.3,i
Cn1c(C(=O)Nc2ccc(Cl)cc2)cc2cc(Cl)ccc21,-3,0.75,-14,4,-1.2,3,4,2.7,i
Cc1ccc(NCc2n[nH]c(=S)n2-c2cccc(Cl)c2)cc1,nt,0.65,0.3,9,2.0,-6,-18,0.5,i
Cc1ccc(C(=O)N2CCN(c3ccc([N+](=O)[O-])c(N4CCOCC4)c3)CC2)cc1,nt,0.69,12,-2,0.1,-17,-16,-2.4,i
O=C(CN1CCN(c2ccccc2F)CC1)NCc1ccccc1,-3,0.66,3.8,2,1.7,-3,-7,0.6,i
COc1cc2c(cc1NC(=O)c1cccc([N+](=O)[O-])c1C)oc1ccccc12,-4,0.71,1.8,16,-0.6,nt,nt,nt,i
CCc1nc(C)cn1S(=O)(=O)c1ccc(Br)cc1,-2,0.71,5.7,1,0.4,10,11,-0.6,i
CCCCSc1nc2c(=O)[nH][nH]c(=O)c2n1Cc1ccccc1,11,0.67,1.7,-2,0.9,nt,nt,nt,nt
CC1(C(=O)Nc2ccc3[nH]ncc3c2)CCN1C(=O)C1(c2ccccc2)CC1 (stereo not drawn),nt,nt,nt,nt,-2.8,-6,-16,0.2,i
Cc1ccc2nc(-c3ccccn3)c(N)n2c1,nt,nt,nt,nt,-4.1,-10,1,1.9,i
O=C(N/N=C/c1ccc(OCc2ccccc2)cc1)c1ccncc1,nt,nt,nt,7,-3.0,nt,nt,nt,i
O=C(NNC(=O)c1ccccc1[N+](=O)[O-])Nc1ccccc1C(F)(F)F,-3,0.66,4.6,12,-2.9,15,20,0.6,i
Cc1ccc(C(=O)N2CC(C)OC(C)C2)cc1[N+](=O)[O-] (stereo not drawn),-5,0.66,3.3,2,2.4,7,5,0.2,i
CN1CCC(NC(=O)NC2CCCCC2)CC1,1,0.69,2.7,-1,-1.7,10,16,14,i
Cc1ccc(-c2cn(CCC(=O)O)c(-c3ccc(Cl)nc3)n2)cc1,-1,0.68,0.0,12,1.1,3,7,-0.4,i
CCOc1ccc(Cn2nnc(C(=O)Nc3ccc(OC)cc3OC)c2N)cc1,0,0.72,-3.5,1,-1.9,12,7,0.6,i
CCN(CC(=O)Nc1ccccc1OC)C(=O)CSCc1c(C)noc1C,-8,0.7,0.2,7,3.5,6,3,0.6,i
O=C(Nc1ccc(C(O)(C(F)(F)F)C(F)(F)F)cc1)c1ccc(Cl)c([N+](=O)[O-])c1,32,0.65,2.3,38,-1.1,-58,-83,-32,i
Cc1ccc(-c2ccc(/C=N/NC(=O)CN3CCCC3)o2)cc1Cl,8,nt,nt,19,5.5,nt,nt,nt,nt

# By substructure, the compounds so far containing an aryl methoxy group (eight)
SMILES,ALR H2O2 inh,Ecoli growth,UCH37 inh,B2AR ag,HNF4A DNA FP,Ecoli rRNA inh,Ecoli rRNA inh OD600,Ecoli rRNA inh RFP,FGF22 binding
COc1cccc(-c2cnc3c(NC(C)=O)cc(-c4ccncc4)cn23)c1,nt,nt,nt,nt,1.0,2,-3,-1.0,i
COc1cccc(CC(NC(C)=O)C(=O)NC2CCN(c3nnnn3-c3ccccc3)CC2)c1 (stereo not drawn),0,0.72,3.8,-6,-4.8,nt,nt,nt,nt
COc1ccc(O)c(C(=O)c2cnn(C(=O)c3cccc(S(=O)(=O)N4CCOCC4)c3)c2)c1,0,0.7,-5.1,5,7.1,7,10,-0.3,i
COc1ccc(C(NC(=O)c2ccc(F)cc2)c2ccccc2)cc1 (stereo not drawn),5,0.67,0.9,7,4.7,9,3,-0.2,i
COc1ccc(CC(=O)N2CCN(c3ccccc3)CC2)cc1,72,0.68,-0.5,0,-1.0,-7,-3,-1.0,i
COc1cc2c(cc1NC(=O)c1cccc([N+](=O)[O-])c1C)oc1ccccc12,-4,0.71,1.8,16,-0.6,nt,nt,nt,i
CCOc1ccc(Cn2nnc(C(=O)Nc3ccc(OC)cc3OC)c2N)cc1,0,0.72,-3.5,1,-1.9,12,7,0.6,i
CCN(CC(=O)Nc1ccccc1OC)C(=O)CSCc1c(C)noc1C,-8,0.7,0.2,7,3.5,6,3,0.6,i

# Bioassay records from PubChem BioAssay.
